Mtb bLac sens = beta-lactam sensitization of Mtb H37Rv; M. tuberculosis H37Rv growth with meropenem, percent inhibition; hits of this screen are not shown here; inhibition, % at 25 µM; 330,000 compounds, 0.27% hits; AID 434955;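 active = about 74% or more and at least 40 points above the plate without the antibiotic, then above 30% in a dose series; inconclusive = first-round hits that could not be retested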;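 note: growth measured after seven days incubation then overnight dye step; 0% = bacteria only wells and 100% = bacteria with antibiotic; twin plates without the antibiotic show which effects depend on it; some results filed as inactive read as strong as hits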
* hit, by the source's call; ? = inconclusive. An excerpt; count on the stated rates, not on these rows.

Preview (2 entries):
SMILES	Mtb bLac sens
CCOC(=O)c1c(C)[nH]c(C(=O)C(C)OC(=O)c2ccc(NC(=O)CC#N)cc2)c1C (stereo not given)	-6.2
COc1ccc2c3c1OC1C(=O)CC[C@@]4(O)[C@@H](C2)N(C)CC[C@]314 (stereo not given in full)	-3.4

Results, from the first entry:
SMILES	Mtb bLac sens
CCOC(=O)c1c(C)[nH]c(C(=O)C(C)OC(=O)c2ccc(NC(=O)CC#N)cc2)c1C (stereo not given)	-6.2
COc1ccc2c3c1OC1C(=O)CC[C@@]4(O)[C@@H](C2)N(C)CC[C@]314 (stereo not given in full)	-3.4
O=C(OCCc1cc2ccccc2c(=O)o1)c1cccc(Br)c1	6.9
CCC(CO)Oc1cc(NC(=O)c2ccc([N+](=O)[O-])cc2)c2ncn(C(C)C)c2c1 (stereo not given)	-5.3
Cc1ccc(CNc2nc(C)c(C(=O)N(C)C)s2)cc1	-0.6
CCn1c(SCc2ccccc2)nc2cc(S(N)(=O)=O)ccc21	4.5
CC(OC(=O)c1cc(=O)c2ccccc2o1)C(=O)c1ccccc1 (stereo not given)	-10.2
COc1cccc(N2CCN(C(=O)CCNS(=O)(=O)c3ccc(F)c(F)c3)CC2)c1	0.6
COc1ccc(C(CNC(=O)CCC(=O)c2ccc(C)s2)N2CCOCC2)cc1 (stereo not given)	-0.3
COCCSc1nnc(NC(=O)COc2ccc3c(c2)OCO3)s1	0.9
Cc1ccc(NC(=O)Cc2nc(CN(C)CC(=O)Nc3ccc(C)cc3)cs2)cc1	-10.7
COc1ccc2ccn(C)c2c1	1.9
C=CCn1c(SCC(=O)NC2CC2)nc2ccccc2c1=O	-5.4
C=C1CCC2[C@](C)(CO[C@@H]3O[C@H](CO)[C@@H](O)[C@H](O)[C@H]3O)CCC[C@@]2(C)[C@@H]1CCC1=CCOC1=O (stereo not given in full)	-4.4
COc1cccc(NC(=O)CN(C)C(=O)c2c(C)nn(-c3ccccc3)c2Cl)c1	1.6
CC(=O)Nc1ccc(NC(=O)c2cc(S(=O)(=O)N3CCCCC3)ccc2C)cc1	-3.0
Cc1noc(C)c1S(=O)(=O)N(C)C[C@H]1Oc2c(NC(=O)C3CCCCC3)cccc2C(=O)N([C@H](C)CO)C[C@@H]1C	-8.0
CC(=O)c1c(C)[nH]c(C(=O)COC(=O)C2(C)CC2(Cl)Cl)c1C (stereo not given)	1.6
CCCCN(C(=O)CSc1ncn[nH]1)c1c(N)n(Cc2ccccc2)c(=O)[nH]c1=O	-1.4
Cc1ccc2c(COC(=O)C3CC(=O)N(c4ccc5c(c4)OCCO5)C3)cc(=O)oc2c1 (stereo not given)	3.4
Cc1csc(SCC(=O)Nc2cccc(C)c2C)n1	-0.7
COc1ccc(S(=O)(=O)N2CCCCCC2)cc1NC(=O)Cc1ccc(OC)c(OC)c1	1.6
O=C(COC(=O)c1ccc(S(=O)(=O)C(F)F)cc1)Nc1ccccc1C(=O)NC1CC1	-4.2
N#C/C(=C\c1ccc(O)c(O)c1)C(=O)N1CCc2ccccc21	0.6
CCCCn1c(N)c(N(CC)C(=O)c2ccc(-c3ccc(Cl)cc3)o2)c(=O)[nH]c1=O	-0.9
CC(OC(=O)c1cc(S(=O)(=O)N2CCOCC2)ccc1F)C(=O)NC1CCCC1 (stereo not given)	-7.3
Cc1ccsc1C(=O)OCC(=O)Nc1ccc(Cl)cn1	0.0
N#Cc1ccccc1S(=O)(=O)N1CCN(C(=O)c2cc(=O)[nH]c3ccccc23)CC1	-1.6
O=C(OCC(=O)N1CCc2ccccc21)c1n[nH]c(=O)c2ccccc12	0.1
Cn1cccc1C(=O)OCC(=O)NCCCc1ccccc1	37.5
Cc1ccc(S(=O)(=O)Nc2cccc(C(=O)NCC(c3ccc(F)cc3)N3CCOCC3)c2)cc1 (stereo not given)	-0.8
Cc1ccc(S(=O)(=O)NCCC(=O)N(C)Cc2cccs2)cc1	-8.5
Cc1c(C(=O)OCC(=O)NCCN2C(=O)CSC2=O)cccc1[N+](=O)[O-]	1.7
COc1cccc(NC(=O)CN(C)C(=O)c2cccc(NS(=O)(=O)c3ccccc3)c2)c1	-4.5
COc1cc(OC)cc(-c2c(-c3cccs3)c3cc(-c4ccc(N(C)C)nc4)ccc3n2C)c1	47.1
Cc1ccc([C@H]2C(C(=O)O)=CC[C@@H](c3cccs3)N2S(=O)(=O)c2ccc(C)cc2)cc1	-1.9
O=C(COC(=O)c1cnccn1)Nc1c(Cl)cc(Cl)cc1Cl	0.3
O=C(Cn1ccc(C(F)(F)F)n1)NNC(=O)c1ccco1	-8.4
CC(=O)Nc1ccc(S(=O)(=O)Nc2ccc(-n3cnnn3)cc2)cc1	-5.2
COc1cc(C(=O)OCC(=O)N2CCCC2=O)cc(OC)c1C	0.3
CCOc1ccc(NC(=O)COC(=O)c2cc(S(=O)(=O)N3CCCC3)ccc2C)cc1	1.7
O=C(Cn1cc(C(F)(F)F)cc(Cl)c1=O)Nc1cccc(S(=O)(=O)N2CCCCC2)c1	-8.4
O=C(CC1SC(N2CCCCC2)=NC1=O)Nc1ccc(C(=O)NCc2ccccc2)cc1 (stereo not given)	-1.0
CC(OC(=O)c1ccco1)C(=O)Nc1ncc(Cl)cc1Cl (stereo not given)	-3.4
Cc1cccc(C(=O)OCC(=O)NC2CC2)c1O	-1.2
COc1ccccc1NC(=O)COC(=O)/C=C/c1cccs1	7.1
CC(C)C(NC(=O)C1CC(=O)N(Cc2ccccc2)C1)c1nc2ccccc2[nH]1 (stereo not given)	-7.7
COc1ccc(-c2csc3ncnc(Sc4nnnn4C)c23)cc1	77.1

Random excerpt: 4 compounds from above.
SMILES	Mtb bLac sens
COc1cc(C(=O)OCC(=O)N2CCCC2=O)cc(OC)c1C	0.3
CC(=O)c1c(C)[nH]c(C(=O)COC(=O)C2(C)CC2(Cl)Cl)c1C (stereo not given)	1.6
C=CCn1c(SCC(=O)NC2CC2)nc2ccccc2c1=O	-5.4
CCOc1ccc(NC(=O)COC(=O)c2cc(S(=O)(=O)N3CCCC3)ccc2C)cc1	1.7

Among those listed so far, 2 contain a CF3 group:
SMILES	Mtb bLac sens
O=C(Cn1ccc(C(F)(F)F)n1)NNC(=O)c1ccco1	-8.4
O=C(Cn1cc(C(F)(F)F)cc(Cl)c1=O)Nc1cccc(S(=O)(=O)N2CCCCC2)c1	-8.4

(list continues)
SMILES	Mtb bLac sens
COC(=O)C1CCCN1S(=O)(=O)c1ccc([N+](=O)[O-])cc1 (stereo not given)	6.7
CCN(CC)CCCN1C(=O)C(=O)/C(=C(/O)c2ccc(OC)cc2)C1c1ccco1 (stereo not given)	-10.5
O=C(COC(=O)c1cncc(Br)c1)Nc1ccc(N2CCCCC2)cc1	-6.8
CCn1c2ccccc2c2cc(NC(=O)C(C)OC(=O)c3ccc(NC(=O)CC#N)cc3)ccc21 (stereo not given)	-3.2
COc1ccc(NC(=O)CSc2nnc(-c3cccs3)n2N)cc1S(N)(=O)=O	-3.2
COCCn1cnnc1SCC(=O)Nc1ccc(N2CCCCC2)cc1	-11.8
CCC[C@H]1NC(=O)[C@H](C)N(C)C(=O)C(C)(C)C(=O)C(C)NC(=O)[C@H](Cc2ccc(OC)cc2)N(C)C(=O)[C@H](C(C)C)N(C)C(=O)CNC(=O)[C@H](CC(C)C)N(C)C(=O)CNC(=O)[C@H]([C@@H](C)CC)OC(=O)[C@H]1C (stereo not given in full)	0.1
O=C(Nc1ccc(F)c(Cl)c1)c1ccccc1	5.9
CCCN(CCC)Cc1c(C(=O)N/N=C/c2ccoc2)nnn1-c1nonc1N	4.4
CCCC[C@@]1(C2CCCC2)Cc2cc(OCC(=O)O)c(Cl)c(Cl)c2C1=O	4.8
Cc1cc(C)c(C(N)=O)c(SCC(=O)c2cc(C)n(-c3cc(C)on3)c2C)n1	-0.8
COc1ccc(C(=O)NCC(c2ccco2)N2CCCC2)cc1S(=O)(=O)N1CCCCC1C (stereo not given)	-7.7
COc1ccc(OC)c(NC(=O)CN2c3cccc4cccc(c34)S2(=O)=O)c1	3.1
COc1ccc(-c2cc(C(=O)Nc3cccnc3Cl)no2)cc1	16.6
C[C@]12CC[C@@H](O)CC1=CCC1C2CC[C@]2(C)C(=O)[C@H](F)CC12 (stereo not given in full)	-3.3
Cn1c(N)c(C(=O)COC(=O)COc2ccc(Cl)cc2Cl)c(=O)n(C)c1=O	9.1
Cc1cccc(OCC(=O)OCC(=O)NCC2CCCO2)c1C (stereo not given)	-6.4
Cc1cccc(C(=O)OCC(=O)NCC2COc3ccccc3O2)c1 (stereo not given)	-0.1
O=C(COC(=O)Cc1cccc(F)c1)NCCc1ccccc1	3.2
COc1ccc(-c2nnc(SCC(=O)NC3CC3)o2)cc1	7.4
O=C(Nc1cc(Cl)ccc1-n1cncn1)c1cccc(S(=O)(=O)N2CCOCC2)c1	-7.8
CCN1C(=O)[C@@H]2[C@@H](c3ccc(SC4CCCCC4)c(OC)c3)N3CCC[C@@]3(C(=O)OC)[C@@H]2C1=O	-12.3
C=CCNC(=O)CN1C(=O)c2cccc3cccc1c23	-10.2
O=C(NCC(=O)N1CCN(S(=O)(=O)c2ccccc2)CC1)c1ccc2ccccc2c1	6.3
CCOC(=O)[C@H]1[C@H]2COc3ccccc3[C@@H]2N2C(=O)[C@@H](C)NC(=O)[C@@]12C	-10.1
CCn1nc(C)c(CN2CCCCC2C(=O)Nc2ccc(Oc3cccnc3)cc2)c1C (stereo not given)	?
CC1Sc2ccc(C(=O)Nc3cc(S(C)(=O)=O)ccc3Cl)cc2NC1=O (stereo not given)	6.5
CC1CCC2(CC1)NC(=O)N(CC(=O)Nc1ccc3c(c1)OCO3)C2=O (stereo not given)	0.7
Cc1nc(SCc2ccc(C#N)cc2)n[nH]1	-4.8
CC(=O)c1c(C)[nH]c(C(=O)COC(=O)c2ccc(Cl)nc2)c1C	4.9
COC(=O)C1=C(c2cccc(OCc3ccccc3)c2)C[C@@H]2CC[C@H]1N2C(=O)NCc1ccc(N(C)C)cc1	-20.7
C[C@@H]1CN([C@H](C)CO)C(=O)c2cc(NC(=O)Cc3cn(C)c4ccccc34)ccc2O[C@H]1CN(C)C(=O)Nc1ccc2c(c1)OCO2	-0.4
CCc1noc(C)c1C(=O)NNC(=O)c1nn(C)c(=O)c2ccccc12	-1.7
O=C(O)c1ccc(O)cc1O	-4.7
O=C(COC(=O)c1cccc(Br)c1)NCc1ccco1	5.7
COC(=O)[C@]1(C)N[C@H](CN(C)S(=O)(=O)c2ccc(C)cc2)[C@@H]2C(=O)N(Cc3ccccc3)C(=O)[C@@H]21	-5.5
CC(NC(=O)COC(=O)C1CCCCC1)c1ccccc1 (stereo not given)	-1.1
COc1cccc(C(=O)Nc2cccc(S(=O)(=O)NC3=NCCC3)c2)c1	-2.7
CCN1CCN(C(=O)c2cc(-c3ccco3)nc3ccccc23)CC1	2.3
Cc1ccccc1C(=O)Oc1ccc(Cl)cc1C(=S)N1CCOCC1	-7.2
O=C(COc1ccccc1F)Nc1ccc(S(=O)(=O)N2CCCC2)cc1	10.0
CCN1CCN(CCC(=O)Nc2cccc(C)c2)CC1	-4.7
S=C(NCCNC(=S)Nc1ccccc1)Nc1ccccc1	-1.2
CC1(c2ccc3ccccc3c2)NC(=O)N(CC(=O)N2CCCC(C(F)(F)F)C2)C1=O (stereo not given)	-4.4
Cc1ccc(C(=O)NCN2CCN(c3ccc(F)cc3)CC2)cc1	-1.5
O=C1CCCN1CCCNc1ncccc1[N+](=O)[O-]	-3.9
O=C(COc1ccc(F)cc1Cl)N1CCN(C(=O)c2cccs2)CC1	-9.9
CCc1nc(N2CCN(C(=S)NCCCOC)CC2)c2c3c(sc2n1)CCCC3	85.3
COC(=O)C1=C(c2ccccc2OCc2ccccc2)C[C@@H]2CC[C@H]1N2C(=O)NCc1cccc(F)c1	-5.4
C=CCC[C@@H](Cc1ccc(F)cc1)C(=O)OC[C@@H]1CCCN1C(=O)[C@H](CC=C)CC(=O)N[C@H](CO)Cc1ccccc1	10.4
CCc1ccccc1NC(=O)CN(C)C(=O)COC(=O)c1cccnc1Cl	-2.0
Cc1ccc(S(=O)(=O)Nc2cccc(C(=O)N3CCC(C(N)=O)CC3)c2)cc1	-8.2
CCOc1ccccc1N(CC(=O)NCCSc1ccccn1)S(=O)(=O)c1ccccc1	1.3
O=C(COC(=O)c1cc(S(=O)(=O)N2CCOCC2)c(Cl)cc1Cl)NCc1ccco1	-1.4
CC(C)C[C@H](NC(=O)N1CC(=O)Nc2ccccc21)C(=O)N1CCC[C@H]1C(=O)O	-2.8
Cc1ccccc1C(=O)OCC(=O)NCc1ccco1	-4.2
C[C@H](CO)N1C[C@H](C)[C@@H](CN(C)Cc2ccc(C(=O)O)cc2)Oc2c(NS(=O)(=O)c3cccs3)cccc2C1=O	-3.8
CCC(CO)Oc1cc(NC(=O)c2ccccc2[N+](=O)[O-])c2ncn(C(C)C)c2c1 (stereo not given)	1.0
O=C(/C=C/c1cccc(F)c1)OCC(=O)c1ccc[nH]1	11.1
CC(=O)Oc1cc(C(=O)OCC(=O)N2CCc3ccccc3C2)cc(OC(C)=O)c1OC(C)=O	0.6

The results go on.
SMILES	Mtb bLac sens
CCCCN(C(=O)C1COc2ccccc2O1)c1c(N)n(CCC)c(=O)[nH]c1=O (stereo not given)	-7.2
Cc1ccc(C(C)NC(=O)c2cc3ccccc3oc2=O)cc1C (stereo not given)	-1.2
CN(C(=O)COC(=O)c1cc(=O)[nH]c2ccccc12)C1CCCCC1	-4.8
CCn1c(=O)c2sccc2n(CC(=O)NCCC2=CCCCC2)c1=O	0.8
COc1cccc(C(=O)O[C@H]2[C@H](C)NS(=O)(=O)[C@H]3C[C@@H]4C=C[C@]23O4)c1	6.3
CC(C)Cn1c(N)c(C(=O)COC(=O)c2cc3ccccc3cc2O)c(=O)n(C)c1=O	-2.7
CNc1ccc(C(=O)OCC(=O)NC(=O)NC2CCCC2)cc1[N+](=O)[O-]	-5.1
COC(=O)c1ccn(CSc2c(F)c(F)cc(F)c2F)n1	-1.4
Cc1csc(=O)n1CCC(=O)OCC(=O)Nc1ccc(S(N)(=O)=O)cc1	-1.1
